Polio RdRp inh – poliovirus RNA polymerase inhibition | P03300 | poliovirus polymerase elongation, fluorescence polarization; stronger effect = lower value | % elongation, % (compound at 16.7 µg/mL) | 150,000 compounds, 0.66% hits; in the data active = % elongation below about 90%; also: some results filed as inactive read as strong as hits
Target sequence (P03300 1749-2209 limits assumed): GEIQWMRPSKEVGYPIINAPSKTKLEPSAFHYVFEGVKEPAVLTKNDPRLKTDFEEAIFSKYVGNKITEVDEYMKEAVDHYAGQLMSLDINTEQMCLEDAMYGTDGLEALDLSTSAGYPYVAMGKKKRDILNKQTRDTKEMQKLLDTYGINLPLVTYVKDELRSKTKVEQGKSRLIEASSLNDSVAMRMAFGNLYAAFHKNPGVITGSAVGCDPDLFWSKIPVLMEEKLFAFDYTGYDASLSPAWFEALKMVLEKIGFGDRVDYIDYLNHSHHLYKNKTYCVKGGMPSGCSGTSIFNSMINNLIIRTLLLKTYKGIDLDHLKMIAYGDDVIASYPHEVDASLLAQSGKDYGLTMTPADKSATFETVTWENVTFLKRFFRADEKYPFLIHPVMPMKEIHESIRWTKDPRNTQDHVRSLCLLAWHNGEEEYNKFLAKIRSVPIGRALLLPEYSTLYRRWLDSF
Mtb MbtI inh – MbtI salicylate synthase inhibition. P9WFX0. inhibition, %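 (about 17 µg/mL by stock and volumes)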. purified MbtI enzyme, fluorescence intensity read-out. 100,000 compounds, 0.89% hits;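 active = above 50% in both replicates, above 80% if mildly self-fluorescent; inactive = the rest, strongly fluorescent compounds included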;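 also: 0% = mean of negative and 100% = mean of positive controls; one replicate is shown; some compounds called inactive have numbers as strong as hits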
Target sequence (P9WFX0 whole entry, looked up): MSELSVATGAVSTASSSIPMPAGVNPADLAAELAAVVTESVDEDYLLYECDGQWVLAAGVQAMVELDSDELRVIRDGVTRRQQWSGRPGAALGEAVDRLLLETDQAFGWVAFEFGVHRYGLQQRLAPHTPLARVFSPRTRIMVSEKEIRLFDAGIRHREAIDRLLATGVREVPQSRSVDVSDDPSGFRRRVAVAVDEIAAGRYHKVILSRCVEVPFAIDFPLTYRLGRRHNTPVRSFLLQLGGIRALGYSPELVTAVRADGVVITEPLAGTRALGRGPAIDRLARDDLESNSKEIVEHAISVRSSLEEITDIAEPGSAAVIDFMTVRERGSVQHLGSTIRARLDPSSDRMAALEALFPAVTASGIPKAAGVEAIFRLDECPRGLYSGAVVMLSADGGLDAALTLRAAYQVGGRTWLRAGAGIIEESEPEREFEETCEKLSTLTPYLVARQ
Mtb MenB inh – blocks the Mycobacterium tuberculosis MenB enzyme; inhibition, %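 (about 12 µg/mL by stock and volumes)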; 100,000 compounds, 0.43% hits; MenB enzyme assay, absorbance read-out; some hits fall short of the stated cut;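 active = mean of two replicates above 30%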;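 also: 0% = no compound and 100% = wells with inactive enzyme; the first replicate is given; strong numbers were not always called active; inactives centre near -10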
Polio RdRp inh intensity – second read-out of Polio RdRp inh, no call of its own (marks repeat the call); % elongation; measured here: total intensity read-out; formula for this scale not given here;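 total fluorescence in place of polarization; lower means less elongation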
An asterisk follows results filed as active; i = inactive; · = not tested or not shown; & = joins results of further samples.

SMILES	Polio RdRp inh	Polio RdRp inh intensity	Mtb MbtI inh	Mtb MenB inh
CC1(c2ccccc2)CC(C)(C)N2C(=O)/C(=C3\SC(=O)NC3=O)c3cccc1c32 (stereo not drawn)	108	105	·	-17
O=c1n(CCCN2CCN(c3cccc(Cl)c3)CC2)nc2ccccn12	101&100	99&102	-95&-196	-7&6
CN(C)c1ccc(NC(=O)/C=C/c2ccccc2)cc1	100	103	-6	-52
Cc1cccn2c(=O)c3cc(C(=O)NCC4CCCO4)c(=N)n(C4CCCCC4)c3nc12 (stereo not drawn)	103	110	i	-104
COc1cccc(NC(=O)c2cn(C3CCCC3)c(=O)c3c2c2ccccc2n3C)c1	102	104	9	-19
CCOC(=O)c1cnn2c(C)cc(-c3ccc(F)cc3)nc12	103	104	117	-20
COc1ccc(NS(=O)(=O)c2coc(C(N)=O)c2)cc1	102	106	1	-14
CCN1C(=O)C(=Cc2cccn2-c2ccc(N(C)C)cc2)C(=O)N(CC)C1=S	97	107	-7	-41
COC(=O)c1ccc(N2CCN(C)CC2)c(NC(C)=O)c1	100	101	0	0
CN(C)CCNc1cn[nH]c(=O)c1Cl	104	100	·	-17
CCCN1CSC(=S)N(CCC)C1	104	107	4	-48
Cc1n[nH]c(C)c1C(C)C(=O)Nc1ccc(CN2CCOCC2)cc1 (stereo not drawn)	100	102	-23	6
CCc1n[nH]c(=S)n1/N=C1\C(=O)N(C)c2ccccc21	100	98	2	-57
COc1ccc(C(=O)c2c(/C=C/N(C)C)oc3ccc(OC)cc23)cc1	103	100	9	-92
COc1ccc(OC)c2sc(NC(=O)/C=C/c3cccs3)nc12	97	102	9	-11
Cc1ccc(C(=O)Oc2c(C)cc(-c3nn(C)c(=O)c4ccccc34)cc2C)cc1	107	113	-19	-24
CC1(C)Cc2ccccc2-c2nnc(SCC(N)=O)n21	101	104	8	22
CC(=O)Nc1n[nH]c(-c2ccc(C)cc2)n1	102	103	46	-33
CC(=O)NNc1nc(Cl)nc(N(C)C)n1	100	103	-10	12
Cc1cc(C(F)(F)F)c2c(=O)n3[nH]c(C)cc3nc2n1	98	93	8	3
CCc1cc(=O)oc2cc(O)ccc12	103	98	76	·
O=C(O)c1ccccc1C(=O)OCc1ccc(F)cc1F	100	103	-7	-22
Cc1cc(=O)oc2cc(OCC(=O)N3CCCC3C(=O)O)ccc12 (stereo not drawn)	105	100	106	14
O=C(NCC1CCCO1)c1cccc(C(=O)NCC2CCCO2)c1 (stereo not drawn)	101	103	-21	31
CNC(=O)COc1ccccc1C(=O)Nc1ccccc1	96	97	32	-7
CC(Sc1nncn1C)C(=O)N(C)c1ccccc1 (stereo not drawn)	100	106	5	-23
CCCCN1C(=O)/C(=C\C(=O)NC(N)=O)c2ccccc21	104	110	-18	-10
COC(=O)CSCc1n[nH]c(=O)c2ccccc12	103	106	-6	6
CC(=O)Nc1ccc(C(=O)c2ccccc2)cc1	99	101	21	-11
Cc1c(N=C2c3ccccc3-c3ccccc32)c(=O)n(-c2ccccc2)n1C	105	112	·	-28
CCN1CCN(C(=O)c2ccc(NC(C)=O)cc2)CC1	102	109	·	-18
COc1ccc(-c2noc(CNC(=O)C3CCCCC3)n2)cc1	103	103	-14	0
CCn1c(SCC(=O)C23CC4CC(CC(C4)C2)C3)nnc1-c1ccco1	102	105	-6	-31
c1ccc(N=P(N2CCOCC2)(N2CCOCC2)N2CCOCC2)cc1	102	104	-13	-118
CCNc1nc(-c2ccccc2)no1	102	105	-11	-24
C=CCn1cc(/C=C(/C#N)C(=O)OCC)c2ccccc21	100	102	5	-37
O=C(O)Cn1ccc(C(F)(F)F)n1	99	106	3	-1
CC(C)NS(=O)(=O)c1ccc(OCC(=O)O)c(Cl)c1	98	98	-12	-5
O=C(Nc1ccccc1)N1CCn2c(nc3ccccc32)C1	103	105	-2	-5
S=C1NCN(Cc2cccs2)CN1	106	114	3	-5
CCOC(=O)c1cccc(NC2c3ncccc3C(=O)N2c2ccc(C)cc2)c1 (stereo not drawn)	104	105	1	-30
N#Cc1cc(C#N)c(SCC(=O)NC2CCCCC2)nc1N	103	105	·	-30
Clc1ccc(OCCSc2ncnc3ccccc23)cc1	104	106	·	-9
NCCCn1c2c(c3ccccc31)CCCC2	99	101	·	-7
Nc1nc(-c2ccc3c(c2)OCCO3)cs1	104	99	·	5
Cn1c(SCC(=O)NC(C)(C)C)nc2cccnc21	102	103	9	-64
COc1ccccc1NC1=NCC(C)S1 (stereo not drawn)	101	105	22	·
CC1CCc2nc3ccccc3c(C(=O)O)c2C1 (stereo not drawn)	105	100	3	-28
O=C(CN1CCCC1)N/N=C/c1ccc(-c2cccc(Cl)c2Cl)o1	102	102	-30	6
Cc1cc(C)cc(OCC(O)CNC(C)(C)C)c1 (stereo not drawn)	103	96	-1	·
Cc1ccc2c(CC(=O)NCCc3ccc(S(N)(=O)=O)cc3)coc2c1	104	112	-3	-5
CCOc1ccc(CNC(=O)C2CCCN(S(=O)(=O)N3CCOCC3)C2)cc1 (stereo not drawn)	102	97	0	9
Cc1cc(C(=O)COC(=O)/C=C/c2ccc3c(c2)OCO3)c(C)n1C1CC1	104	112	9	-22
CCN(CC)S(=O)(=O)c1cccc(-c2nnc(C(=O)c3ccc(C(F)(F)F)cc3)o2)c1	108	110	-11	-10
O=C(Nc1nccs1)C12CC3CC(C1)CC(C(=O)Nc1nccs1)(C3)C2	103	107	-9	-6
CN(C)S(=O)(=O)c1ccc(/C(O)=C2\C(=O)C(=O)N(Cc3cccnc3)C2c2cccnc2)cc1 (stereo not drawn)	102	101	2	34*
CCOC(=O)C1=C(C)Nc2ccccc2N=C1N	109	114	14	-10
CC(C)(C)CC(C)(C)N=C1NS(=O)(=O)c2ccccc21	102	102	-22	5
COC(=O)c1c(C)oc2ccc(NS(=O)(=O)c3ccc(OC)cc3)cc12	104	105	0	-18
CC(C)n1c(=S)[nH]c2ccccc2c1=O	101	101	-5	-82
New compounds follow:
SMILES	Polio RdRp inh	Polio RdRp inh intensity	Mtb MbtI inh	Mtb MenB inh
O=C(O)CNc1nc(C(F)(F)F)nc2c1cnn2Cc1ccccc1	100	93	5	15
CN(C)CCOC(c1ccccc1)c1ccccc1 (tested in a mixture with another compound)	99&100	102&101	-10&-15	-6&4
COc1ccc(O)c(C(=O)OC(C(=O)N(C)C)c2ccccc2)c1 (stereo not drawn)	106	107	-48	-9
NS(=O)(=O)c1ccc(CNC(=O)COc2ccc(Cl)cc2)cc1	99	103	-7	-19
O=C1C2C3C=CC(C3)C2C(=O)N1c1ccc2c(c1)OCO2 (stereo not drawn)	100	98	-7	0
Clc1ccc(OCc2cn3ccccc3n2)c2ncccc12	108	107	·	-18
CCOC(=O)CSC1=C(C#N)C(c2cccc(Cl)c2)CC(=O)N1 (stereo not drawn)	101	96	·	-7
CCNc1nc(NC(C)C)nc(Oc2ccc(/C=N/O)cc2)n1	98	92	9	-8
O=C1c2ccccc2C(=O)N1/N=C/c1cn(-c2ccccc2)nc1-c1cccs1	101	108	-8	3
O=C(c1ccccc1)N1CCOc2ccccc21	100	103	-12	0
CC(=O)Nc1cccc(OCc2cc(=O)n3nc(CC(C)C)sc3n2)c1	101	103	1	-9
O/N=C/C(=N/O)c1ccc(Br)cc1	100	103	-11	-25
C#CCSc1nnc2n(CC)c(=O)c3c(n12)-c1ccccc1CC31CCCCC1	103	103	-9	-19
COC(=O)C1=C(C)NC(=O)CC1C(=O)NCc1ccccc1 (stereo not drawn)	103	104	-7	-14
COc1cccc(C(=O)Nc2ccc(-c3ccc4nnc(C)n4n3)cc2)c1OC	106	109	8	-24
CNC(=O)Cn1c(-c2cccs2)cc2ccccc21	104	108	90	-14
CC1=C(C(=O)Nc2ccc(C(=O)NCCCN3CCCCC3)cc2)SCCO1	102	105	8	2
CCC(=O)Nc1ccccc1N1CCN(c2ccc(F)cc2)CC1	103	99	-8	-13
NC(=S)NNc1ccc(S(N)(=O)=O)cc1	101	102	51*	3
O=C(c1ccccc1)N1CCCCC(S(=O)(=O)c2ccccc2)C1=O (stereo not drawn)	104	98	-5	-15
Cc1cc(SC#N)ccc1N	98	101	19	7
Cc1[nH]nc(-c2ccc(S(=O)(=O)NCCCN3CCCC3)s2)c1C	99	100	28	-1
COc1ccc(N2CCN(c3ccccn3)CC2)cc1	99	105	-1	-19
CCN(C(=O)CCc1nnc2ccc(NCc3ccccc3)nn12)c1ccccc1	101	102	-11	-25
CC(C)CCNC(=O)c1ccc(CS(=O)(=O)c2ccc(Br)cc2)o1	101	98	15	2
CC1Cc2ccccc2N1C(=O)CSc1nnc(-c2ccccc2)o1 (stereo not drawn)	102	103	-8	-22
O=C1c2ccc(C34CC5CC(CC(C5)C3)C4)cc2C(=O)N1CCN1CCOCC1	98	98	-3	7
CN1C(=O)c2ccccc2Sc2ccc(C(=O)O)cc21	100	102	-4	-5
CCN1C(=O)C(=Cc2ccc(-c3ccccc3F)o2)C(=O)N(CC)C1=S	103	105	16	15
O=C(O)/C=C/C(=O)N1CCc2ccccc21	99	101	·	-3
CC(C)n1cc(NC(=O)c2cc(-c3ccccc3)on2)cn1	100	103	-1	-24
CCOC(=O)c1sc2nc(C)nc(NCCCOC)c2c1C	104	108	107	-7
CC1SC(NC(=O)COc2ccccc2)=NC1=O (stereo not drawn)	101	104	-5	12
CN1CCN(CCCC(=O)c2ccc(F)cc2)CC1	101	99	-6	-7
Cc1ccc(NC(=O)OC2CCCCCCC2)cc1	103	103	14	1
Clc1ccc(-c2nc(N3CCC4(CC3)OCCO4)c3ccccc3n2)cc1	100	101	4	-8
O=C1c2ccccc2-c2nn(C(=O)c3ccc(Br)s3)c3cccc1c23	100	107	-3	-3
CCOCc1c(C(=O)OCCOc2ccccc2)oc2ccccc12	102	100	35	-45
NS(=O)(=O)c1ccc(NC(=O)CCC(=O)Nc2ccc(S(N)(=O)=O)cc2)cc1	102	100	6	-20
NC(=O)c1c(NC(=O)c2ccccc2)sc2c1CCCC2	101	108	-5	·
CC(C)c1cccc(C(C)C)c1O	100	98	-8	-9
O=c1ccc(-c2n[nH]c(=S)n2-c2ccc(F)c(Cl)c2)n[nH]1	104	101	27	-11
Cc1cc(NS(=O)(=O)c2ccc3c(c2)OCCO3)no1	104	102	-8	-2
Cn1c(C(C#N)C(=O)c2ccccc2Br)nc2ccccc21 (stereo not drawn)	100	103	5	12
CC1CCCCC1NC(=O)CN1CCC(NC(=O)c2cccc(F)c2)CC1 (stereo not drawn)	102	103	-4	-18
Cc1ccc(OCCNC(=O)c2ccc(C(C)(C)C)cc2)cc1	107	107	·	-16
O=C(CCn1cccc1)NCCN1CCCCCC1	100	112	0	5
CCOc1ccc(NC(=S)C(C#N)=C2N(C)c3ccccc3N2C)cc1	102	105	0	-26
O=C(O)COc1cc(OCC(=O)O)c2c(-c3ccccc3)cc(=O)oc2c1	98	97	-8	-3
O=C1C=C(NCCN2CCOCC2)CC(c2ccccc2)C1 (stereo not drawn)	103	101	7	-22
O=c1c(F)cn(C2CCCO2)c(=O)n1Cc1ccc(Cl)cc1 (stereo not drawn)	101	107	-4	-5
CC1CCCC(NC(=O)CNC(=S)N(Cc2ccccc2)Cc2cccs2)C1C (stereo not drawn)	98	95	10	-43
CC(C)CN(CC(C)C)S(=O)(=O)c1csc(C(N)=O)c1	104	103	-39	0
CCNC(=O)CC1C(=O)N(c2ccc(OC)cc2)C(=O)N1CCOC (stereo not drawn)	102	101	-4	-26
CCc1nnc(SCC(=O)Nc2ccc3c(c2)OCO3)n1CC1CCCO1 (stereo not drawn)	103	103	2	3
Cc1ccc(C=Nc2ccc3ccccc3c2)o1	130	143	·	-12
CCC(C)C(=O)Nc1ccc(Cl)cc1 (stereo not drawn)	106	103	·	-12
COC(Cn1c(-c2cccc(S(=O)(=O)N(C)C)c2)n[nH]c1=S)OC	99	105	6	-30

Of the compounds above, these have a Cl atom:
SMILES	Polio RdRp inh	Polio RdRp inh intensity	Mtb MbtI inh	Mtb MenB inh
O=c1n(CCCN2CCN(c3cccc(Cl)c3)CC2)nc2ccccn12	101&100	99&102	-95&-196	-7&6
CN(C)CCNc1cn[nH]c(=O)c1Cl	104	100	·	-17
CC(=O)NNc1nc(Cl)nc(N(C)C)n1	100	103	-10	12
CC(C)NS(=O)(=O)c1ccc(OCC(=O)O)c(Cl)c1	98	98	-12	-5
Clc1ccc(OCCSc2ncnc3ccccc23)cc1	104	106	·	-9
O=C(CN1CCCC1)N/N=C/c1ccc(-c2cccc(Cl)c2Cl)o1	102	102	-30	6
NS(=O)(=O)c1ccc(CNC(=O)COc2ccc(Cl)cc2)cc1	99	103	-7	-19
Clc1ccc(OCc2cn3ccccc3n2)c2ncccc12	108	107	·	-18
CCOC(=O)CSC1=C(C#N)C(c2cccc(Cl)c2)CC(=O)N1 (stereo not drawn)	101	96	·	-7
Clc1ccc(-c2nc(N3CCC4(CC3)OCCO4)c3ccccc3n2)cc1	100	101	4	-8
O=c1ccc(-c2n[nH]c(=S)n2-c2ccc(F)c(Cl)c2)n[nH]1	104	101	27	-11
O=c1c(F)cn(C2CCCO2)c(=O)n1Cc1ccc(Cl)cc1 (stereo not drawn)	101	107	-4	-5
CCC(C)C(=O)Nc1ccc(Cl)cc1 (stereo not drawn)	106	103	·	-12

Compound activity as filed in PubChem.
